Assay outcomes (PubChem BioAssay)
ClpP mod: qHTS Assay for Activators of ClpP; ATP-dependent Clp protease proteolytic subunit (Bacillus subtilis (strain 168)), P80244; purified B. subtilis ClpP, FRET peptide cleavage, 20 min; Potency, µM (series often up to 57.5 µM), without a hit: top-dose activity change, negative = active; hit rate 1.9% among 340,000; AID 651965, 2013; active = well fitted falling curve with a large enough effect; inconclusive = small, poorly fitted or top-dose-only effect; inactive = no such curve, though single readings can be large or run the other way; further: potency means the concentration at half of the fitted maximal effect; the source files actives as falling curves though it sought activators and does not explain the sign; nearly all actives have a fitted effect of over 65% in size; many hits overshoot -100%
Target sequence (P80244 whole entry, looked up): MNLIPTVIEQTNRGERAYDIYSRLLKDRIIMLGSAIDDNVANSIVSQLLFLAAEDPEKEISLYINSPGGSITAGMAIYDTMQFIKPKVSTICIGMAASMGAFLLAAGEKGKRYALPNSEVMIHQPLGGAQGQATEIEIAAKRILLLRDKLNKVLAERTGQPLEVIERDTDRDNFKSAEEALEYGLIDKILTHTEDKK
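FRET quenching reversal measured ClpP activation: 10 microg/mL B. subtilis ClpP at pH 8 with the FRET-FV decapeptide, read at 430 nm after 320 nm excitation. The 20-min minus 0-min signal was scaled between DMSO/no-enzyme wells and ADEP (5.8 microM final).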
Sfp PPTase inh: blocks B. subtilis Sfp PPTase activity | hit rate 3.5% among 310,000 | AID 1490 | Potency, µM, for the others: max response, negative = inhibition, hits mostly inhibitors | Biochemical Sfp PPTase activity, qHTS; active means well fitted inhibition curve with a large enough effect; inconclusive means small, poorly fitted or top-dose-only effect, or another doubt; inactive means no such curve, though single readings can be large or run the other way;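 further: the enzyme is Sfp with the accession as filed and its product quenches rhodamine fluorescence; potency means the concentration at half of the fitted maximal effect; 0% = enzyme reaction without inhibitor and -100% = no enzyme wells; top concentration of the series not given in the record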
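With Hepes-Na pH 7.6 buffer containing 10 mM MgCl2, Sfp (15 nM) modified BHQ-2-YbbR (12.5 uM) using rhodamine-CoA (5 uM). Two reads 30 minutes apart at 525/598 nm yielded each well's rate.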
PINK1 expr mod: changes PINK1 expression; PINK1 immunofluorescence, high-content cytometry, 24 h; Potency, µM (titrated, usually from 76.6 µM), for inactives: at the top dose activation (PINK1 increase), most hits filed as activators; hit rate 0.2% among 410,000; active = well fitted activation curve with a large enough effect; inconclusive = small, poorly fitted or top-dose-only effect; inactive = flat fitted curve, though single readings scatter; cell line not stated here;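 further: potency means the concentration at half of the fitted maximal effect; % of control where 0% means no effect; nearly all actives have a fitted effect of over 65% in size; a mitochondrial uncoupler was the plate control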
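Cells are seeded, rested 12 hours, then given compound at five concentrations or DMSO for 24 hours. After fixation, blocking and antibody staining, PINK1 amount and mitochondrial localization are scored; CCCP serves as control.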
Menin MLL FP FL: menin-MLL binding inhibition, fluorescein peptide | Fluorescence polarization, fluorescein-MLL peptide displacement from menin | FP activity change, % at 61.4 µM | 290,000 tested, under 10 active | AID 1766; inconclusive = falling polarisation curve, or a change in total fluorescence; inactive = total fluorescence flat and polarisation flat or rising; no compound was filed as active; the % refers to the polarisation; negative = inhibition;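 further: % of control where 0% means no effect; inhibitors lower the polarisation; unlabelled MLL peptide was the positive control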
TRPML1 inh: human mucolipin-1 channel inhibition; Q9GZU1; TRPML1-inducible cells, Ca2+ dye fluorescence, FDSS; stronger effect = lower value; inhibition of EC80 agonist-evoked calcium signal; activity change, negative = inhibition, % (no concentration beside the values); hit rate 0.02% among 390,000; AID 624415; in the data active means activity change below about -50%; inconclusive means about -30% to -50%; inactive means above about -30%;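 further: stimulus is agonist 54-4 at its EC80 concentration; on the % scale 0 is the no-effect control and ±100 the full control effect; compound concentration not given in the record; the text of the record puts the active cut at -80%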
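Calcium fluorescence in TRPML1-DL cells induced overnight with Tet: a 110 s read after compound pin addition, then a 110 s antagonist read after challenge with 54-4 at 4 uM final (EC80).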
TRPV1 potentiator: human TRPV1 potentiation. Q8NER1. TRPV1-expressing cells, Fluo-8 calcium influx, capsaicin EC20 potentiation; host cell line not named in the record; control for the full effect not named in the record. potentiation, % at 8.33 µM. hit rate 0.02% among 320,000; active means potentiation above 80%; inconclusive means 30% to 80%; inactive means below 30%; further: 0% is about no effect
Target sequence (Q8NER1 whole entry, looked up): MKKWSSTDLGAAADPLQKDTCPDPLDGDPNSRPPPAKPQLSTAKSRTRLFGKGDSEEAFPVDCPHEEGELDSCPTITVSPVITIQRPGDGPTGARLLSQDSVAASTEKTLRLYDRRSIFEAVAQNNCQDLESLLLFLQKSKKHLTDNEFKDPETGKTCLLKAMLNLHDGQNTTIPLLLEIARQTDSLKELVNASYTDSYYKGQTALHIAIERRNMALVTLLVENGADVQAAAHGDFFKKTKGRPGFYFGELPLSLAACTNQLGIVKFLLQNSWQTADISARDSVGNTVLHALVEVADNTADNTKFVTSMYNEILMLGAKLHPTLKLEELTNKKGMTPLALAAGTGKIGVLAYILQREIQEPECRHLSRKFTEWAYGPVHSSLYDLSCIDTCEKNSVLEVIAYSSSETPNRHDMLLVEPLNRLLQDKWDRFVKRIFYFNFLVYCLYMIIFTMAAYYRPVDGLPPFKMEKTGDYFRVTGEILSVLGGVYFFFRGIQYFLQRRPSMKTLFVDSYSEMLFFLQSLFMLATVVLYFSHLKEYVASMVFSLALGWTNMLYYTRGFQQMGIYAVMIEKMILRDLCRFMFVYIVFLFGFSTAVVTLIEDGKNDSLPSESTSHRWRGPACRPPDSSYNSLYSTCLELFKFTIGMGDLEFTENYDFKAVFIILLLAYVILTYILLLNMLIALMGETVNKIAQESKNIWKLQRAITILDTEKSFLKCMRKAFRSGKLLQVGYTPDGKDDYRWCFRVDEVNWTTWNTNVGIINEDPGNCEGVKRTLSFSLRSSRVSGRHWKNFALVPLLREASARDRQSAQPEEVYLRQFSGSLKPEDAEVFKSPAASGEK
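Cells expressing TRPV1 were dye-loaded with Fluo-8 and read kinetically: 10 s baseline, 3 min after compound (agonist portion), then 2 min after EC20 capsaicin (allosteric enhancer portion). Calcium-bound dye fluorescence at 480/520 nm.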
TRPML1 ag: activates the human TRPML1 channel; Q9GZU1; TRPML1-expressing cells, Ca2+ dye fluorescence, FDSS; host cell line not named in the record; reference of the full effect not given here; activation, % (test concentration not listed); hit rate 0.12% among 410,000; in the data active = activation above about 50%; inconclusive = about 30% to 50%; inactive = below about 30%; further: 0% is about no effect; the text of the record puts the active cut at 80%
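TRPML1-DL cells, Tet-induced overnight (~16 h, 37 degrees C), loaded 45-90 min at room temperature with Ca8 no-wash calcium dye plus quencher. FDSS fluorescence: 10 s baseline, compound pin-transfer, 110 s agonist read, then EC80 54-4 (4uM final) and 110 s antagonist read.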
Starred values were filed as active, the others as inactive; ? = inconclusive; . = not tested or not shown; & = joins results of further samples; [ ] = another dose, or the depositor's remark. These rows are one share of the data (hit frequency here may not be typical).

SMILES	ClpP mod	Sfp PPTase inh	PINK1 expr mod	Menin MLL FP FL	TRPML1 inh	TRPV1 potentiator	TRPML1 ag
C=CCN1C(=O)C2(C(C(=O)OCC)=C(N)Oc3ccccc32)c2c1c1ccccc1oc2=O (stereo not drawn)	-1.1%	-9%	2.5%[38.3 µM]	2.7	-7	-18	0.1
CCC(CC)N1CCN(C(=O)Cc2ccccc2)CC1	-0.5%	-7%	1.4%[38.3 µM]	-1.4	8	-16	-0.6
O=c1cccc2n1CC1CC2CN(Cc2ccc3c(c2)OCO3)C1 (stereo not drawn)	-0.5%	13%	-3.5%[38.3 µM]	-1.1	5	.	0.5
C[N+]1(C)[C@@H]2CC(OC(=O)[C@H](CO)c3ccccc3)C[C@H]1[C@@H]1O[C@@H]12 (stereo partly drawn)	8.4%&0.1%	11%&21%	0.9%&0.1%	-0.3&6.8	-11&-1	6&-10	0.9&-0.2
N#CCP(=S)(c1ccccc1)c1ccccc1	-0.5%	-13%	0.3%	3.8	2	-2	0.6
CCOc1ccc2oc(C(=O)NN3C(C)CCCC3C)c(C)c2c1 (stereo not drawn)	-2.4%	0%	1.9%	-0.9	-2	4	-0.7
CC(C)C(=O)c1cn(Cc2ccccc2C#N)c2ccccc12	4.5%	7%	-1.3%	0.9	-19	-2	0.8
O=c1[nH]c(=S)n(-c2ccccc2F)c(O)c1C=NCc1ccco1	-3.3%	-10%	3.4%	9.7	19	6	-0.6
O=C(c1ccc2c(c1)N(Cc1c(F)cccc1Cl)C(=O)c1ccccc1S2)N1CCC2(CC1)OCCO2	-1.3%	.	-1.2%	.	-11	.	-1.0
COc1cccc(N2C(=O)NC(=O)/C(=C/c3ccc4c(c3)Cc3ccccc3-4)C2=O)c1	1.4%	56µM*	0.0%	5.6	2	-10	-0.2
CN1C(=O)C(=Cc2cccnc2)C(=O)N(C)C1=O	0.9%	40µM*	-0.7%	7.1	-5	18	-0.2
CC(C)COC(=O)N1Cc2ccccc2-n2nncc2C1	-3.0%	.	-1.0%	.	-13	.	-0.2
O=C(N/N=C/c1c(O)n(Cc2ccccc2)c(=O)[nH]c1=O)c1ccncc1	-1.3%	17%	2.5%	5.2	-5	2	-0.7
COC12C(COC(N)=O)C3=C(C(=O)C(C)=C(N)C3=O)N1CC1C2N1C (stereo not drawn)	0.1%	-11%	-1.0%	?	.	-7	.
O=C(COc1ccc(Cl)cc1)NCCc1cnc[nH]1	-0.7%	13%	0.8%	-3.5	.	4	.
CC(=O)c1ccc(OCC(=O)N2CCCC(N(C)Cc3ccccc3)C2)cc1 (stereo not drawn)	-23%	11%	-2.9%	.	8	-2	-0.1
CCC(C)n1c(O)c(C(c2ccccn2)c2c(O)n(C(C)CC)c(=S)[nH]c2=O)c(=O)[nH]c1=S (stereo not drawn)	1.3%	50µM*	0.4%[38.3 µM]	-1.4	-6	30	-0.7
Oc1ccc2c3c1O[C@H]1c4[nH]c5ccccc5c4C[C@@]4(O)[C@@H](C2)N(CC2CC2)CC[C@]314	-2.2%	.	0.5%	.	32	7	0.6
CC(C)C/C(=N/O)c1c[nH]c2ccccc12	-5.3%	13%	-0.1%	-2.0	-19	1	-1.0
c1ccc(C[n+]2ccccc2)cc1	-2.3%	.	-0.1%	.	3	-31	-0.6
CCCCn1c(NC(=O)c2ccc(Br)o2)c(C(=O)OCC)c2nc3ccccc3nc21	.	-30%	2.4%	15	34	8	1.0
O=C(c1ccc(Cl)cc1)C12CN3CN(CN(C3)C1)C2	0.4%	-6%	-0.6%	0.0	-3	-5	-0.4
C[C@]12CCC3[C@@H](CCC4=CC(=O)CC[C@@]43C=O)C1CCC2=O (stereo partly drawn)	-3.6%	4%	1.2%	1.3	7	-15	0.9
Cc1ccc(C(=O)O)cc1N=Nc1c(O)[nH]c(=O)[nH]c1=O	.	3%	1.2%	0.7	-4	3	-0.9
Cc1nc(-c2cccc(CN(C)C(=O)Oc3ccc([N+](=O)[O-])cc3)c2)no1	1.5%	.	-0.2%	.	.	.	-0.3
CC(C)(C)C(=O)Cn1c(NCCCl)nc2ccccc21	.	8%	-0.3%	1.4	5	2	-1.0
CN(C)C(Cc1ccccc1)C(=O)c1ccccc1 (stereo not drawn)	-3.1%	-5%	-0.7%	.	11	0	0.6
C[C@]12CCC3C(CC[C@@H]4[C@H]5O[C@H]5CC[C@]34C)C1CC[C@@H]2O (stereo partly drawn)	.	.	4.7%	.	6	.	-0.3
COc1ccc(CNC(=O)CCC(=O)N2C[C@H]3C[C@H](C2)c2cccc(=O)n2C3)cc1OC	-2.3%	-2%	0.1%	-9.8	.	-6	.
COc1ccccc1-n1c(Cc2ccccc2)nc2ccccc2c1=O	1.0%	8%	3.0%	-3.1	-12	4	-0.4
C#C[C@]1(O)CCC2C3CC=C4C[C@H](O)CC[C@]4(C)C3CC[C@@]21C (stereo partly drawn)	1.0%	.	-0.2%	.	17	.	-0.1
O=C(c1ccc2c3c(cccc13)CC2)C1CCCN(Cc2ncc[nH]2)C1 (stereo not drawn)	.	6%	1.6%	6.2	4	2	-0.4
CCn1c(=O)cc(SCC(=O)N2CCC3(CC2)OCCO3)c2ccccc21	-28%	29%	18%[38.3 µM]	2.8	-3	-2	0.0
c1csc(CN2CCC3(CCNCC3)CC2)n1	.	-6%	-0.8%	-2.9	.	.	.
Cc1cc2c(cc1C)NP(=S)(c1ccccc1)N2	.	.	-1.8%	.	-2	.	0.1
Cc1ccc(OC(=O)N(C)C[C@H]2OCc3cnnn3CCCC(=O)N([C@@H](C)CO)C[C@H]2C)cc1	-2.5%	.	1.4%	.	-17	.	-0.1
Cn1c2ccccc2c2c(C(=O)N3CCC4(CC3)OCCO4)cn(C3CCCCC3)c(=O)c21	18µM*	-1%	1.2%	5.8	17	-11	0.7
O=C(O)Cn1cc(C(=O)c2ccccc2F)c2ccccc21	0.1%	8%	-0.5%	-1.7	-2	12	-0.5
COc1ccc(C(=O)C2CCCN(Cc3ccccn3)C2)c(OC)c1 (stereo not drawn)	0.6%	-3%	5.8%	0.6	33	13	-0.3
COc1ccc(C2=NCc3nnc(C)n3-c3ccc(Cl)cc32)cc1Cl	-1.6%	-11%	7.1%	3.5	17	27	-0.1
O=C(CSC1c2ccccc2-c2ccccc21)N/N=C/c1ccccc1O	-1.6%	10%	17%[38.3 µM]	1.3	-8	7	-0.1
CC(C)(C)c1nc(NCc2ccc3c(c2)OCO3)c2nnn(Cc3ccccc3Cl)c2n1	-17%	15%	8.8%	5.8	4	-16	-0.6
COc1ccc(OCC(=O)N2CCN(C3CCC(c4ccccc4)CC3)CC2)cc1 (stereo not drawn)	.	-1%	-1.2%	1.7	-2	-3	-0.2
CC(=NCCN1CCOCC1)c1c(O)n(C2CCCCC2)c(=O)[nH]c1=O	-0.1%	3%	-1.4%	7.5	16	1	-0.5
COC(=O)C1=C(c2ccc(C(C)=O)cc2)C[C@@H]2CC[C@H]1N2C(=O)N1CCOCC1	0.1%	.	-0.8%	.	3	17	0.2
Cn1c(O)c(/C=N/NC(=O)c2ccncc2)c(=O)n(C)c1=S	-17%	-9%	1.1%	?	7	-3	0.2
C/C=C(\C)C(=O)N[C@@H](c1ccccc1)[C@@H](O)C(=O)O[C@H]1C[C@@]2(O)[C@@H](OC(=O)c3ccccc3)C3[C@](C)(C(=O)[C@H](OC(C)=O)C(=C1C)C2(C)C)[C@@H](O)C[C@H]1OC[C@@]31OC(C)=O (stereo partly drawn)	-2.0%	13%&0%	1.6%	-4.8&-1.4	.	-13	.
NP(=O)(Oc1ccccc1)Oc1ccccc1	.	.	2.8%	.	-20	.	-0.1
C[C@]1(O)CCC2C3CC[C@H]4C[C@@H](OC(=O)[C@@H](N)CCCCN)CC[C@]4(C)C3CC[C@@]21C (stereo partly drawn)	1.5%	.	4.2%	.	-11	.	-0.2
Cc1ccc(-n2nc(C)c3c2NC(=O)CSC3c2ccc3c(c2)OCO3)cc1 (stereo not drawn)	-0.1%	56µM*	-1.1%	-0.9	-7	-3	-0.1
O=C(Nc1cccc(C(F)(F)F)c1)c1cccn(Cc2ccc3c(c2)OC(F)(F)O3)c1=O	-5.7%	?	15%	2.3	1	.	-0.1
CCC1(CCO)C(=O)NC(=S)NC1=O	.	.	-1.4%	.	-3	.	0.6
CN1C(=O)C(=Cc2ccccc2OCCOc2ccc([N+](=O)[O-])cc2)C(=O)N(C)C1=O	.	71µM*	1.8%	0.5	30	-9	-1.1
CN(C)c1ccc(NC(=O)CN2C(=O)CN=C(c3ccccc3)c3ccccc32)cc1	-0.4%	-1%	1.6%	2.1	1	-1	1.0
O=C1NC(=O)N(c2ccc3c(c2)OCO3)C(=O)/C1=C\c1ccc(N2CCCCC2)o1	-1.2%	-6%	0.0%	?	16	-3	6.2
CCCCCCn1c(O)c(/C=N/N2CCCCCC2)c(=O)[nH]c1=O	.	5%	6.5%	0.2	-1	2	1.0
COc1ccccc1-n1c(CNCC2CCCO2)nc2ccccc2c1=O (stereo not drawn)	-0.9%	6%	0.6%	.	8	-7	-0.4
COc1ccc(-n2c(O)c(C(C)=NCCCn3ccnc3)c(=O)[nH]c2=O)cc1	2.5%	16%	-1.2%	-1.3	-5	3	0.7
COC(=O)C1=C(c2ccc(-c3ccccc3)c(F)c2)C[C@@H]2CC[C@H]1N2C(=O)N1CCCC1	0.0%	.	-1.9%	.	-7	-9	0.4
CCCCN1C(=O)NC(=O)C2(Cc3cc(C)ccc3N(C)C2)C1=O (stereo not drawn)	-2.3%	?	0.1%	6.6	-20	-2	0.2
Cc1ccccc1OP(N)(=O)Oc1ccccc1C	.	5%	-1.5%	-0.8	-6	1	0.6
OCCN1C2CCC1CC(O)(c1ccc(F)cc1)C2 (stereo not drawn)	-2.8%	6%	4.5%	1.5	-3	-11	1.0
CC(C)CN1Cc2cc(-c3cccc(F)c3)ccc2-n2nncc2C1	-4.8%	.	0.0%	.	.	.	-0.3
